VACV Venus inh: inhibitors of vaccinia virus (Venus reporter) | Vaccinia virus Venus reporter expression, fluorescence | Potency, µM (series often up to 36.5 µM), inactives show at the highest dose activity change, negative = inhibition, hits mostly inhibitors | 0.46% of 330,000 active | AID 720580; active means well fitted inhibition curve with a large enough effect; inconclusive means small, poorly fitted or top-dose-only effect; inactive means no such curve, though single readings can be large or run the other way; tested in A549 cells; further: nearly all actives have a fitted effect of over 30% in size; inactives centre near -10
Vaccinia mCherry: vaccinia inhibition (mCherry reporter) | Vaccinia virus mCherry reporter infection, fluorescence; about a quarter of the inactives have no number | 0.63% of 310,000 active | Potency, µM (series often up to 36.5 µM), without a hit: at the highest dose activity change, negative = inhibition, actives largely listed as inhibitors; active = well fitted inhibition curve with a large enough effect; inconclusive = small, poorly fitted or top-dose-only effect; inactive = no such curve, though single readings can be large or run the other way; tested in A549 cells; further: nearly all actives have a fitted effect of over 35% in size; inactives centre near -10
Numbers without * were called inactive; i = inactive; ? = inconclusive; nt = not tested or not shown; [ ] = another dose, or the depositor's remark. On the % scale 0 is the no-effect control and ±100 the full control effect; potency means the concentration at half of the fitted maximal effect.

SMILES	Vaccinia mCherry	VACV Venus inh
CS(=O)(=O)c1ccc(Cl)c(NC(=O)COC(=O)/C=C/c2cnc3ccccc3n2)c1	3%[7.34 µM]	14%[7.34 µM]
CC1CCC2(CC1)NC(=O)N(CC(=O)c1ccc(Cl)s1)C2=O (configuration not stated)	0%	-17%
OCC#CCSc1nnc(-c2ccccc2Br)o1	?	?
Cc1cnc(-n2ncc(C(=O)NCCc3ccncc3)c2-c2cccs2)nc1-c1ccc(F)cc1	-3%	-19%
CCCC1CCC(c2ccc(/C(N)=N/O)cc2)CC1 (configuration not stated)	-14%	4%
CCOC(=O)C1=C(C)NC(=O)NC1c1c(O)ccc2ccccc12 (configuration not stated)	i	-9%
CCC(C)NS(=O)(=O)c1ccc(-c2csnn2)s1 (configuration not stated)	-22%	-13%
OCC(Br)CBr (configuration not stated)	-2%	-13%
Cc1ccc(C(=O)N/N=C/c2c(O)ccc3ccccc23)cn1	2.2µM*	?
CCOc1ccc(-c2cn(-c3cccc(SC)c3)c(=O)[nH]2)cc1	-3%	-12%
CCOc1ccc(CCNC(=O)Cn2nnc(-c3ccc(C(F)(F)F)cc3)n2)cc1OCC	4%	-4%
Cc1ccc(CSCCNS(=O)(=O)c2ccc(C)cc2)cc1	-15%	-12%
COc1ccc(N(C(=O)C(C)C)S(=O)(=O)c2cccc([N+](=O)[O-])c2)cc1	1%	4%
CCOC(=O)N1CCC(NC(=O)CN2C(=O)COc3ccc(C(C)(C)C)cc32)CC1	-5%	-8%
CCCC(=O)Nc1ccc(-c2csc(N/N=C\c3ccncc3)n2)cc1	-21%	-4%
CCOc1ccccc1NC(=O)CCS(=O)(=O)c1ccc2c(c1)oc(=O)n2C	-4%	6%
O=C(COc1ccccc1)Nc1ccc(S(=O)(=O)Nc2ncccn2)cc1	i	8%
CC(=O)Nc1ccc(NC(=O)COC(=O)c2c3c(nc4ccccc24)CCN(Cc2ccccc2)C3)cc1	?	-29%
CC(=O)Nc1ccc(C(=O)OCC(=O)Nc2ccc(S(=O)(=O)N3CCOCC3)cc2)cc1	-13%	-8%
NC(=S)NNC(=O)c1ccccc1	-20%	-7%
CCOc1ncccc1C(=O)N(C)CC1COc2ccccc2O1 (configuration not stated)	i	-13%
O=C1C2CC=C(Cl)CC2C(=O)N1CNc1ccccn1 (configuration not stated)	-13%	-12%
CC1CCCCC12NC(=O)N(CC(=O)Nc1ccccc1N1CCOCC1)C2=O (configuration not stated)	-8%	-3%
F[B-](F)(F)COCc1ccccc1Br	?	?
CCOc1ccc(OCc2ccc(C(=O)O)o2)cc1	-16%	-10%
COc1ccc(C(=O)Nc2ccc(N3CCCC3)cc2)cc1	i	-10%
COC(=O)C1=C(c2ccc(F)cc2F)C[C@@H]2CC[C@H]1N2C(=O)N1CCC(O)(c2ccc(Cl)cc2)CC1	i	?
CCC1(CC)NC(=O)N(CC(=O)Nc2cccc3ccccc23)C1=O	-16%	2%
N#C/C(=C\c1cccnc1)C(=O)Nc1ccc(SC(F)F)cc1	-11%	-1%
CN1CCN(S(=O)(=O)c2ccc3c(c2)OCCO3)CC1	i[1.46 µM]	-8%
CC(C)n1ncc2c(C(=O)N3CCN(Cc4ccc(Cl)s4)CC3)cc(C3CC3)nc21	?	-17%
Cc1nn(C)cc1CN(C)C(=O)CC12CC3CC(CC(C3)C1)C2	-22%	-12%
O=C(NCc1ccccc1)C(c1ccncc1)n1c(=O)c(-c2ccccc2)nc2ccccc21 (configuration not stated)	-14%	-15%
CCOC(=O)Cn1c2ccc(C)cc2c2nc(C)sc21	i	-17%
Cc1cccc(C(=O)N/N=C/c2ccc(OCC(=O)N3CCCCC3)cc2)c1	i	-13%
CCCn1c(=O)c(C(=O)NCc2ccco2)c(O)c2ccccc21	?	-15%
CC(=O)Nc1ccc(NC(=O)C2CCCCN2S(=O)(=O)c2ccc(C(C)(C)C)cc2)cc1 (configuration not stated)	-24%	-14%
O=C(/C=C/c1cccs1)c1ccc(Br)cc1	nt	-6%
COc1cccc(CNC(=O)CNC(=O)N2CC(=O)Nc3ccccc32)c1	i	-16%
Cc1cccc(OCC(=O)Nc2ccc(-c3nc4ccccc4o3)cc2)c1C	-5%	4%
COc1cccc(C(=O)C2CCCN(Cc3cccc4c3OCO4)C2)c1 (configuration not stated)	-1%	-1%
COc1ccc(NS(=O)(=O)c2cc(NC(=O)c3ccco3)ccc2N2CCCCC2)cc1	?	?
COc1cc2oc(=O)cc(CN3CCCCC3)c2cc1Cl	35%[activator]	3%
COc1ccc(CCNc2ncnc3c2oc2ccccc23)cc1OC	-21%	?
CCOc1ccc(CNS(=O)(=O)c2c(C)nc3sccn3c2=O)cc1OC	i	-10%
COc1ccc(C(=O)N2CCCC(CO)C2)cc1OC1CCN(C(C)C)CC1 (configuration not stated)	i	-8%
Cc1ccc(C)c(S(=O)(=O)N2CCCOC2CNC(=O)C(=O)NCCC2=CCCCC2)c1 (configuration not stated)	-8%	-19%
CC1(C(=O)NS(=O)(=O)c2ccc(F)cc2F)CCN1C(=O)C1(c2ccc(Cl)cc2)CC1 (configuration not stated)	i	12%
Cc1nc2cccnc2n1C1CCN(C(=O)Nc2ccc(Cl)cc2)CC1	4%	0%
COc1ccc(C(=O)Nc2ccc(N3CCOCC3)cc2)cc1S(=O)(=O)N1CCOCC1	i	-11%

Record cards (already shown). Order of screens: Vaccinia mCherry | VACV Venus inh
COc1ccc(C(=O)N2CCCC(CO)C2)cc1OC1CCN(C(C)C)CC1 (configuration not stated) in the list: i | -8%
COc1ccc(C(=O)Nc2ccc(N3CCOCC3)cc2)cc1S(=O)(=O)N1CCOCC1 in the list: i | -11%
Cc1ccc(C)c(S(=O)(=O)N2CCCOC2CNC(=O)C(=O)NCCC2=CCCCC2)c1 (configuration not stated) in the list: -8% | -19%
CC1(C(=O)NS(=O)(=O)c2ccc(F)cc2F)CCN1C(=O)C1(c2ccc(Cl)cc2)CC1 (configuration not stated) in the list: i | 12%

Going on with the list:
SMILES	Vaccinia mCherry	VACV Venus inh
Cc1cc(C)cc(NC(=O)c2nnn(Cc3cc(C)ccc3C)c2N)c1	-19%	-17%
FC(F)(F)c1cccc(NC(=S)N2CCN(c3ccccn3)CC2)c1	-6%	-10%
O=C1CC(c2ccccc2)CC(O)=C1C=NCCN1CCN(Cc2ccccc2)CC1 (configuration not stated)	i	-8%
CCOC(=O)c1cc(CC)sc1NC(=O)CC1Sc2ccc(C(F)(F)F)cc2NC1=O (configuration not stated)	-23%	-15%
CCOC(=O)[C@@H]1[C@H]2COc3ccc(Br)cc3[C@H]2N2C(=O)N(c3ccc(OC)cc3)C(=O)[C@]12C	i	-10%
CCCCN(CCCC)CCCNC(=O)c1cc(-c2ccc(Cl)s2)nc2ccccc12	?	-24%
COc1cccc(N2CCN(c3ccc4nnc(CCC(=O)Nc5ccccn5)n4n3)CC2)c1	-14%	7%
CCOC(=O)C1CCN(C(=O)Nc2ccc3nc(-c4ccco4)c(-c4ccco4)nc3c2)CC1	nt	3%
Cc1ccccc1CSc1ccc(S(=O)(=O)N2CCCC2)cn1	-24%	-10%
C=C1C(C)C2C(Cc3ccccc3)NC(=O)C23OC(=O)/C=C/C(O)CCCC(C)C/C=C/C3C1O (configuration not stated)	?	?
CCN(CC)CCN1C(=O)C(=O)/C(=C(/O)c2ccc(OC(C)C)cc2)C1c1ccncc1 (configuration not stated)	nt	2%
COc1ccc(OCC(=O)N2CCN(S(=O)(=O)c3ccc(Cl)cc3)CC2)cc1	-2%	-9%
COc1ccc(CCNC(=O)CCCCCNc2nc(=S)[nH]c3ccccc23)cc1OC	?	-22%
Cc1cc(NC(=O)CS(=O)(=O)Cc2ccccc2)no1	-12%	-6%
CC1=CC(=O)CC(C)(C)[C@@]1(O)/C=C/[C@@H](C)O[C@@H]1O[C@H](CO)[C@@H](O)[C@H](O)[C@H]1O	-1%	-2%
Cc1nc2ccccc2c(C)c1CC(=O)N(C)CC(=O)Nc1cccc(F)c1	13%	39%[activator]
COc1cc(CN2CCc3nnc(C(NS(C)(=O)=O)C(C)C)n3CC2)ccc1F (configuration not stated)	1%	-1%
Cc1cccc(C)c1-n1c(SCC(=O)NCc2ccco2)nc2ccccc2c1=O	nt	-11%
O=C(CSc1ccccc1)Nc1ccc(S(=O)(=O)Nc2ncccn2)cc1	i	-10%
CC(=O)Nc1ccc(C(=O)OCC(=O)NCc2ccc3c(c2)OCO3)cc1	-21%	-13%
Cn1c(=O)c(C(=O)CN2CCCCC2)c(N)n(Cc2ccccc2)c1=O	i	0%
O=C(NCc1cccnc1)c1cccc(NC(=O)c2ccco2)c1	-1%	-18%
Cc1ccc(CN(Cc2ccco2)C(=O)COc2cc(C)c(Cl)c(C)c2)cc1	-9%	-2%
COc1ccc(S(=O)(=O)NCc2cccnc2)cc1NC(=O)c1ccc(Cl)cc1	-8%	-16%
Cc1ccc(CNC(=O)CCc2nc3cccnc3n2Cc2ccccc2)cc1	-10%	-8%
COc1ccc(CCC(=O)OCC(=O)N(C)c2c(N)n(Cc3ccccc3)c(=O)[nH]c2=O)cc1	-17%	-15%
CC1(C)CCc2cc(CN3CCN(c4ccccn4)CC3)ccc2O1	-12%	-5%
CCOc1ccc(-n2c(=O)c3sccc3n(CC(=O)NCc3ccco3)c2=O)cc1	i	-11%
Cn1cc(-c2coc3c(C(=O)NCc4cccs4)cccc23)cn1	?	-23%
CC(=O)c1cccc(NC(=O)C2C3C=CC(C3=C(c3ccccc3)c3ccccc3)C2C(=O)O)c1 (configuration not stated)	i	-22%
O=c1ccc2cc(S(=O)(=O)N3CCN(c4ccccc4)CC3)ccc2[nH]1	i	-15%
O=C(NCCc1c[nH]c2ccccc12)c1cccc(S(=O)(=O)Nc2ccccc2Cl)c1	?	-22%
CCOC(=O)CNC(=S)N(Cc1ccccc1)Cc1cccs1	-9%	-12%
O=C(NC1CC1)C1C2C3C4CC5C3C5C4C12 (configuration not stated)	-14%	1%
Cc1ccccc1Cn1c(CN2CCc3ccccc3C2)nc2c1c(=O)n(C)c(=O)n2C	-18%	-8%
O=C(O)CSc1ncn[nH]1	nt	-4%
CC(C)CC(NC(=O)c1ccccc1)C(=O)N/N=C/c1ccco1 (configuration not stated)	-7%	11%
Cc1ccc(Cl)c2sc(NC(=O)C3CC3)nc12	29%	-3%
Cc1cn(C2OC(COC(=O)c3ccccc3)C(O)C2O)c(=O)[nH]c1=O (configuration not stated)	-9%	-9%
CN(C)C(C)(C)/C=C/C(O)(c1ccccc1)c1ccccc1	i	-7%
Cc1c(C(=O)N2CCCC2)oc2c1-c1nn(CC(=O)NC(C)c3ccccc3)cc1CC2 (configuration not stated)	-26%	-29%
CCn1c(=O)c2cc(C(=O)NCCc3ccc(Cl)cc3)sc2c2ccccc21	2%	2%
COc1cc(/C=N/NC(=O)CNc2n[nH]c(=O)[nH]c2=O)ccc1OCc1ccccc1	-12%	-8%
CSCCC(NC(=O)COc1ccccc1)C(=O)N1CCN(c2ccccc2F)CC1 (configuration not stated)	-18%	-15%
CCOC(=O)N=Nc1c(O)n(CC)c2ccccc12	-19%	-4%
CCOc1cc(N2CCOCC2)c(OCC)cc1NC(=O)C(C)C	-12%	-10%
COC(=O)CC(=O)CSc1nc(C)cc(C)c1C#N	-20%	-17%
COc1ccccc1NC(=O)Cn1c(=O)n(CCCCCC(=O)NCc2ccccc2)c(=O)c2sccc21	-14%	1%
CCOC(=O)C(=O)Nc1nnc2n1CCS2	-12%[7.34 µM]	-11%[7.34 µM]
O=C(CN(C(=O)CNC(=O)c1cccs1)c1ccc(F)cc1)NC1CCCCC1	38%[activator]	11%

Three of these compounds in another layout.
COc1ccccc1NC(=O)Cn1c(=O)n(CCCCCC(=O)NCc2ccccc2)c(=O)c2sccc21
- Vaccinia mCherry: -14%
- VACV Venus inh: 1%

O=C(CN(C(=O)CNC(=O)c1cccs1)c1ccc(F)cc1)NC1CCCCC1
- Vaccinia mCherry: 38%[activator]
- VACV Venus inh: 11%

CCOc1cc(N2CCOCC2)c(OCC)cc1NC(=O)C(C)C
- Vaccinia mCherry: -12%
- VACV Venus inh: -10%

(list continues)
SMILES	Vaccinia mCherry	VACV Venus inh
O=C(C1CCC(CNS(=O)(=O)c2ccc(F)cc2)CC1)N1CCOCC1 (configuration not stated)	i	-13%
COC(=O)C1=C(c2ccc(OCc3ccccc3)cc2)C[C@@H]2CC[C@H]1N2C(=O)NCc1ccc(Cl)cc1	?	?
C#Cc1cc(N2CCN(C(=O)c3ccoc3)CC2)n2nc(-c3cccc(Cl)c3)cc2n1	?	?
COc1cc(C(=S)N2CCOCC2)cc(OC)c1OC(=O)c1ccc(F)cc1	i	-23%
COCCCNC(=O)COc1cc2c(c3oc(=O)c(C)c(C)c13)CCC(C)(C)O2	0%	-6%
O=C1CCN2C=Nc3cccc4ccc1c2c34	-9%	3%
C=CCOC(=O)C1=C[C@H](c2ccc(Br)cc2)C[C@H](OCCCCO)O1	i	-3%
Cc1ccc(S(=O)(=O)N(Cc2ccccc2)c2ccccc2C(=O)NCc2cccnc2)cc1	i	-6%
O=C(Nc1cccc2c1CCCC2)c1cc(C2CCCCN2C(=O)CCCc2ccccc2)on1 (configuration not stated)	6%	-9%
Cc1cccc(NC(=O)c2sc(-n3nc(C)c(CCC(C)C)c3C)nc2C)c1C	-6%	3%

Screening data from PubChem.
